AID504770 – growth inhibition of E. coli YBA685, primary screen, V. cholerae RctB inhibitors; E. coli YBA685 rctB-dependent plasmid, OD600 growth, 3 h; hits give low values; z-score (test concentration not listed); 130,000 tested, 0.27% active;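 active means z-score under -2 on both plates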;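 further: wells of about 30 µL received 100 nL stock; score is relative to mean and SD of the test wells; the first replicate is given; strong numbers were not always called active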
Ba CapD inh – Bacillus anthracis CapD inhibitors, primary screen, biochemical, fluorescence intensity; CapD gamma-glutamyltranspeptidase (Bacillus anthracis Ames Ancestor); purified CapD enzyme, fluorescence intensity read-out; hits give low values; some hits fall short of the stated cut; z-score (test concentration not listed); 140,000 tested, 0.23% active; AID 492967, 2010;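 active means z-score under -4 in either of two replicates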;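 further: stock transfer was 100 nL into about 40 µL; score is relative to mean and spread of the plate; one replicate is shown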
* marks the source's active call; other numbers are inactive results; i = inactive; nt = not tested or not shown; & = joins results of further samples.

SMILES	AID504770	Ba CapD inh
NCC1OC(OC2C(N)CC(N)C(OC3OC(CO)C(O)C(N)C3O)C2O)C(N)CC1O (centres undefined)	nt	0.04
O=S(=O)(c1cccc2cccnc12)N1CCCC1c1ccc(F)cc1 (centres undefined)	0.7	-0.53
CCOC(=O)N1CCC(NC(=O)Cc2cn(C)c3ccccc23)CC1	0.15	0.08
CCN(CC)c1ncnc2sc(C(=O)N3CCN(Cc4ccc5c(c4)OCO5)CC3)c(C)c12	nt	-0.48
CC(c1cccs1)N(Cc1ccco1)C(=S)Nc1cc(F)cc(F)c1 (centres undefined)	0.6	0.49
N#Cc1c(OCC(F)(F)F)ccc(C(N)=O)c1OCC(F)(F)F	0.5	0.81
O=c1nc(NC2CCCC2)ccn1Cc1cccc(Br)c1	-0.75	0.025
O=c1oc2ccccc2c(O)c1C=Nc1cccc(C(F)(F)F)c1	-1.3	0.18
ON(Cc1ccccc1)Cc1ccccc1	-1.6	-0.27
NCc1csc(-c2ccccc2)n1	0.7	-0.05
COc1ccc(CCNC(=O)C2CCN(c3ccc(N4CCOCC4)nn3)CC2)c(OC)c1	0.2	59
O=C(NCCN1Cc2ccccc2C1=O)Nc1cccc(Cl)c1	0.55	0.44
O=C(/C=C/N1CCOCC1)c1ccc(Cl)cc1	-0.05	79
C=C[C@]1(C)C=C2CC[C@@H]3[C@](C)(CCC[C@@]3(C)C(=O)O)[C@H]2CC1O (some centres undefined)	-0.1	0.065
COc1nc(N(C)S(=O)(=O)c2ccc(C)cc2)nc(C)c1Br	nt	0.015
C[N+]1(C)C2CCC1CC(OC(=O)C(CO)c1ccccc1)C2 (centres undefined)	0.95	0.47&0.06
CC(C)(C)c1nc2c(o1)OC(N)=C(C#N)C2c1ccc(Cl)cc1Cl (centres undefined)	-0.45	-0.49
CCn1cc2c(n1)-c1c(oc(C(=O)NCc3cccnc3)c1C)CC2	-0.35	0.39
Cc1ccc(-c2nc3s/c(=C/c4cccs4)c(=O)n3n2)cc1	-0.05	-0.48
NC(/C=C/c1cc(C(F)(F)F)cc(C(F)(F)F)c1)=N\O	-0.15	-1.7

Brought forward from above: four entries, then new ones.
SMILES	AID504770	Ba CapD inh
CC(C)(C)c1nc2c(o1)OC(N)=C(C#N)C2c1ccc(Cl)cc1Cl (centres undefined)	-0.45	-0.49
CCn1cc2c(n1)-c1c(oc(C(=O)NCc3cccnc3)c1C)CC2	-0.35	0.39
Cc1ccc(-c2nc3s/c(=C/c4cccs4)c(=O)n3n2)cc1	-0.05	-0.48
NC(/C=C/c1cc(C(F)(F)F)cc(C(F)(F)F)c1)=N\O	-0.15	-1.7
C#CCOC(=O)Nc1nc(C)oc1C(F)(F)F	1.1	-0.76
O=C(NNC(=O)c1cccc2ccccc12)OCCc1ccc(Cl)cc1	nt	8.9
Cc1cc2cc(CNC(=S)Nc3cccc(C)c3C)ccc2[nH]1	-0.1	2.5
COc1cc(OC)cc(C(=O)n2nc(C)c(-c3ccccc3)c2N)c1	2.1	0.18
CCOC(=O)c1c(C)c(C(=O)N2CCCCCC2)c(C)n1C	0.15	-0.025
COCC1=C(C(=O)OC)C(c2c(F)cccc2Cl)C(C#N)=C(N)O1 (centres undefined)	nt	34
C=CCC(c1cc(Cl)ccc1N)S(=O)(=O)c1ccc(C)cc1 (centres undefined)	-0.2	0.16
COc1ccc(OC)c(NC(=O)CSc2nc3n[nH]c(C)c3c(=N)n2-c2ccc(Br)cc2)c1	nt	-0.27
O=C(Nc1nccc2cccnc12)c1ccc(C(F)(F)F)cc1	nt	-0.8
CCc1ccc(-n2c(SCc3nnc(-c4cccs4)o3)nc3ccccc3c2=O)cc1	0.35	nt
Brc1ccc(C2Nc3ccccc3C(c3ccccc3)(c3ccccc3)O2)cc1 (centres undefined)	nt	-0.08
COc1ccc(/C=N/n2c(C)cc(C)cc2=O)cc1	1	-0.73
O=[N+]([O-])c1cccc(Nc2nc(OCC(F)(F)F)nc(OCC(F)(F)F)n2)c1	nt	0.41
O=C(Cc1cccs1)Nc1nnc(SCC(=O)N2CCCCCC2)s1	-0.2	-0.29
O=C(CSc1nnc(-c2cccs2)o1)NCC1CCCCC1	0	nt
Clc1ccc(OCc2nc3c4cnn(-c5ccc(Cl)cc5)c4ncn3n2)cc1	0.8	0.97
CC(C)NC(=O)CC(c1cccs1)N1Cc2ccccc2C1=O (centres undefined)	0	-0.06
CN(C(=O)Nc1ccc(C(C)(C)C)cc1)C1CCCCC1	2.8	-0.69
CC(C)OC(=O)CSc1nnc(-c2ccccc2)o1	2.8	-0.86
C#CCNC(=O)c1cc2cnccc2nc1C(F)(F)F	nt	-0.42

Quoted at random: three records from the list
SMILES	AID504770	Ba CapD inh
Brc1ccc(C2Nc3ccccc3C(c3ccccc3)(c3ccccc3)O2)cc1 (centres undefined)	nt	-0.08
Clc1ccc(OCc2nc3c4cnn(-c5ccc(Cl)cc5)c4ncn3n2)cc1	0.8	0.97
COc1ccc(OC)c(NC(=O)CSc2nc3n[nH]c(C)c3c(=N)n2-c2ccc(Br)cc2)c1	nt	-0.27

(listing goes on)
SMILES	AID504770	Ba CapD inh
COc1ccccc1-c1oc2ccccc2c(=O)c1O	-0.7	3.4
Cc1ccc(C2C(C(=O)/C=C/c3ccccc3)=C(O)C(=O)N2CCO)cc1 (centres undefined)	-0.25	nt
COc1ccc(-c2cc(C(F)(F)F)n3nc(C(=O)NCCCN4CCOCC4)c(Cl)c3n2)cc1	nt	-1.8
O=C(NCCN1CCOCC1)C1CCC(=O)N1Cc1ccc(F)cc1 (centres undefined)	-0.25	0.14
OC(CNCc1ccc(-c2cccs2)cc1)C(F)(F)F (centres undefined)	0.1	1.8
O=C(COC(=O)c1n[nH]c2ccccc12)NC1CC1	-1.1	2.6
O=C(Cc1ccccc1)Nc1ccccc1F	-0.45	0.2
Oc1ccccc1C=Nc1cc(C(F)(F)F)ccc1Cl	0.1	-0.93
COC(=O)Cc1cc(OC)c(OC)cc1S(=O)(=O)N1CCOCC1	nt	-0.065
O=C1/C(=C\c2ccccc2)N=C(c2ccccc2)N1c1ccccc1	1.1	4.7
CCOC(=O)c1cnc(SC)nc1Sc1cc(Cl)ccc1Cl	nt	-0.015
O=C(Nc1ccc(Cl)cc1)N1CCOC1c1cccs1 (centres undefined)	-0.1	-1.3
O=C(Nc1ccccc1)C1c2cccc[n+]2CC(=O)N1c1ccccc1 (centres undefined)	-0.8	0.035
COc1ccc(-c2nc(C)c(CCNC(=O)c3cccc(C(F)(F)F)c3)s2)cc1	0.1	0.17
CC(=O)N1N=C(c2cc3ccccc3o2)OC1c1c(C)[nH]c(=O)[nH]c1=O (centres undefined)	-0.1	2.3
CNC(=O)Cn1ncc2c3ccccc3n(C)c2c1=O	0.8	19
Cc1c2cnn(CC(=O)N3CCCC3)c(=O)c2c(C)n1Cc1ccccc1	0.75	2.1
CC1CCc2ccccc2N1C(=O)c1cccs1 (centres undefined)	-0.5	0.6
Cc1nn(CCCC(=O)N2CCCC2)c(=O)c2c1sc1ccccc12	1.3	-1.3
COc1ccc(O)c(C2=Nc3ccccc3N=C(c3cccc(Br)c3)C2)c1	nt	1.2
CCC1CCc2c(sc(NC(=O)c3c(-c4c(Cl)cccc4Cl)noc3C)c2C(N)=O)C1 (centres undefined)	nt	0.39
Cc1ccc2c(c1)-c1sc(C(=O)Nc3ccc(Cl)cc3C)cc1CS2	nt	3.9
O=C(NC1CCS(=O)(=O)C1)C1CCN(c2nccc(C(F)(F)F)n2)CC1 (centres undefined)	0.85	0.41
N#Cc1cc2c(nc1SCCS(=O)(=O)Cc1ccc(Cl)cc1)CCCC2	-0.45	1.9
CC12CCC3C(CC=C4CC(O)CCC43CO)C1CCC2OC(=O)c1ccccc1 (centres undefined)	0.95	-0.3
O=C(Cn1c2ccccc2c(=O)c2cc([N+](=O)[O-])ccc21)Nc1cccc(Cl)c1	nt	0.07
CC1CCN(C(=O)CN2C(=O)CSc3ncccc32)CC1	-1.1	0.2
Cc1cc(/C=C2\NC(=O)NC2=O)c(C)n1-c1cccnc1	-0.05	-0.53
Cc1ccccc1OCC(O)Cn1c(NCCCn2ccnc2)nc2c1c(=O)n(C)c(=O)n2C (centres undefined)	nt	-0.23
C1=CC2/C(=N\Nc3ccccn3)CC2C1 (centres undefined)	-0.5	nt
COC(Cn1c(-c2cccc(S(=O)(=O)N(C)C)c2)nn(CN2CC(C)CC(C)C2)c1=S)OC (centres undefined)	0.9	nt
O=c1sc(N2CCN(c3ccccc3F)CC2)nc2ccsc12	-0.25	0.095
CCC(COC(=O)N1CCC2(CC1)C(=O)NCN2c1ccccc1)c1ccccc1 (centres undefined)	nt	-1.1
COc1ccc(C2SCCN2S(=O)(=O)c2ccc(NC(C)=O)cc2)cc1OC (centres undefined)	-0.05	nt
Cn1c(SCc2ccccc2)nnc1C1CCCNC1 (centres undefined)	0.8	nt
Nc1nc(Cn2c(-c3nonc3N)nc3ccccc32)nc(N2CCOCC2)n1	nt	0.05
CC(C(=O)NNC(=O)OCCc1ccccc1Br)n1nnc(N2CCOCC2)n1 (centres undefined)	nt	0.2
COc1ccc(N2C(=O)C(=O)/C(=C(\O)c3ccc(Cl)cc3)C2c2ccccc2F)cc1 (centres undefined)	nt	-0.69
c1ccc(CN2CCC(NCc3nnc(-c4ccccc4)o3)CC2)cc1	-0.7	nt
O=C(O)c1ccc(Br)cn1	-0.25	nt
COc1ccc(N2C(=NC(C)=O)SC3CS(=O)(=O)CC32)cc1 (centres undefined)	-0.05	0.18
O=C(OC/C=C/c1ccccc1)c1ccc(S(=O)(=O)N2CCOCC2)cc1	-1.1	-0.06
O=C(COC(=O)Cc1ccc(S(=O)(=O)N2CCOCC2)s1)Nc1ccccc1	-1.6	nt
COc1ccc(S(=O)(=O)Cc2ccc(C(=O)N3CCOCC3)o2)cc1	1.2	-0.01
CS(=O)(=O)c1ccc(Cl)c(NC(=O)c2cncn2-c2ccc(F)cc2)c1	0.45	nt
N=C(N)Cc1c(Cl)cccc1Cl	3	-1.4
O=C(Cc1ccccc1)N1CCN(C/C=C/c2ccccc2)CC1	-0.8	-0.09
O=c1c2ccccc2c(=O)c2c1c(N1CCOCC1)cc1oc3cc(Cl)ccc3[nH]c12	nt	-1.7
COc1ccc(C(C[N+](=O)[O-])c2c(N)n(C)c(=O)n(C)c2=O)cc1 (centres undefined)	nt	0.15
CC(Sc1nnnn1C)C(=O)Nc1ccccc1 (centres undefined)	-0.6	nt
Cc1cc(NC(=O)C2CC=CCC2C(=O)O)no1 (centres undefined)	0.05	0.34
O=C(N/C(=C/C=C/c1ccccc1)C(=O)N1CCCCC1)c1ccccc1	0.1	-3.1
S=C1NCCN1Cc1ccccc1	-0.3	-0.68
O=C(Nc1nc2ccc(Br)cc2s1)c1c(O)c2ccccc2[nH]c1=O	nt	-0.12
COc1ccc2[nH]c(C)c(CCNCc3ccc(C#N)cc3)c2c1	1.1	-0.49
COc1cccc2cc(C(=O)NC(C)=O)c(=Nc3ccc(Cl)cc3Cl)oc12	nt	0.28
O=C1NC(=S)N(c2ccc(Br)cc2)C(=O)/C1=C/c1ccc(N2CCOCC2)o1	nt	0.03
O=C(Cc1ccccc1)Nc1nnc(SCC(=O)Nc2nnc(-c3cccc([N+](=O)[O-])c3)s2)s1	nt	0.29
CCOc1cc(C#N)c(NC(=O)c2ccc(OC)c(S(=O)(=O)N3CCC(C)CC3)c2)cc1OCC	-0.65	-0.15
CCSCCOC(=O)C1=C(C)NC2=C(C(=O)CC(c3ccc(OC)cc3)C2)C1c1cccc(O)c1 (centres undefined)	nt	37

2 of these compounds, set out differently:
Order of results – AID504770, Ba CapD inh
> Cc1cc(NC(=O)C2CC=CCC2C(=O)O)no1 (centres undefined)
  0.05, 0.34
> O=C(N/C(=C/C=C/c1ccccc1)C(=O)N1CCCCC1)c1ccccc1
  0.1, -3.1

More records.
SMILES	AID504770	Ba CapD inh
COC(=O)c1cc(N2C(=O)/C(=C/c3ccc(Cl)cc3)C=C2c2ccccc2)ccc1Cl	nt	1
O=C(Cc1ccccc1)NC1CCN(C(=O)c2c(Cl)cccc2Cl)CC1	nt	0.56
Cc1cc(C)n(-c2ccc(N3CCC(C)CC3)nn2)n1	2.5	0.25
CN(C)/C=C/C=C1\N=C(c2ccccc2)OC1=O	-0.35	-7*
CC1CCc2sc(NC(=O)C(C)C)c(C(N)=O)c2C1 (centres undefined)	0.45	i
Cc1[nH]c2ccccc2c1C(=O)CSC(=S)N(C)C1CCCCC1	2	-0.45
CCCc1nnc(NC(=O)CSc2nc(C)cc(C)n2)s1	0.3	0.36
CCCCN1COc2ccc3c(C)cc(=O)oc3c2C1	0.05	87
CN(C)C(=O)N1CCN(S(=O)(=O)c2ccccc2)CC1	1.4	nt
NC(=O)c1ccccc1NC(=O)Cc1ccccc1	-0.35	13
COc1ccccc1N=C=S	-1.2	nt
Cc1nnsc1C(=O)NC1Cc2ccccc2C1	-0.15	0.42
CC1CCN(C(=S)NCCc2ccccc2)CC1	0.7	nt
c1ccc(CN2CCN(c3nc(N4CCOCC4)c4ccccc4n3)CC2)cc1	-1.3	nt
Cn1c(C(=O)NCC2(c3ccccc3)CCCC2)cc2c(=O)n(C)c3ccccc3c21	2	-0.69
O=C(Nc1ccccc1-c1nc2ccccc2[nH]1)c1ccc(S(=O)(=O)N2CCc3ccccc32)cc1	nt	0.49
Cc1ccc(C(C(=O)NCc2ccccc2)N(Cc2ccco2)C(=O)Cn2nnc3ccccc32)cc1 (centres undefined)	-0.35	-0.28
